Screening results: PubChem BioAssay, several laboratories
RecA intein inh: Mtb RecA intein splicing inhibitors, primary screen, biochemical, fluorescence, HTS | Protein RecA (Mycobacterium tuberculosis (strain ATCC 25618 / H37Rv)), P9WHJ3 | cell-free RecA intein splicing | inhibition, %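 (about 9 µM by stock and volumes)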 | 290,000 tested, 0.75% active; in the data active = inhibition above about 30%;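 also: 0% = vehicle wells and 100% = reference inhibitor control wells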
Target sequence (P9WHJ3 whole entry, looked up): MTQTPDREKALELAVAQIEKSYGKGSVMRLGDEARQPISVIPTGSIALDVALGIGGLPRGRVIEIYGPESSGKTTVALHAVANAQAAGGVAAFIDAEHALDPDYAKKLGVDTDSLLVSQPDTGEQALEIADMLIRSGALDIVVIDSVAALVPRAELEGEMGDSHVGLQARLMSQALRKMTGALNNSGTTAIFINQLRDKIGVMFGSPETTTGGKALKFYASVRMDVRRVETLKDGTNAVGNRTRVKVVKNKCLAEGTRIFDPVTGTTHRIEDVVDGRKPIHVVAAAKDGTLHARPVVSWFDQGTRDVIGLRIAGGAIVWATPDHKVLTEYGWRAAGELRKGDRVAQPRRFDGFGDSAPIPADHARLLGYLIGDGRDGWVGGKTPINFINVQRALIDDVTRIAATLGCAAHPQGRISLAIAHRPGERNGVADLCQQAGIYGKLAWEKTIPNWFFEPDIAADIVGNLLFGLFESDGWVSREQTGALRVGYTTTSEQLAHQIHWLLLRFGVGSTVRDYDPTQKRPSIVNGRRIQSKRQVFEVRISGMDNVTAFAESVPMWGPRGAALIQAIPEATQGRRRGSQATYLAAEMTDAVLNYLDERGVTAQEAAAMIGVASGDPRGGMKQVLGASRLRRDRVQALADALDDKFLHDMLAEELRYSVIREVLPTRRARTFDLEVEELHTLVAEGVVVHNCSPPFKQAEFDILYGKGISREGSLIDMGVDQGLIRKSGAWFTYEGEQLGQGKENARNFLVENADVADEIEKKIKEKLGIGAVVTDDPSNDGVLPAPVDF
Arbovirus inh: antivirals against arbovirus infection, primary screen, cell-based, full library, 10K replicate subset | arbovirus infection cell-based antiviral screen | inhibition, % at 10 µM | 200,000 tested, 0.37% active | AID 1251, 2008;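 active = inhibition from about 30%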;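 also: bluetongue infection of BSR cells; cell survival read as ATP light after 72 h; 0% = infected wells without compound and 100% = uninfected wells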
Mtb H37Rv: M. tuberculosis H37Rv growth inhibitors, H37Rv strain (AID 1626); M. tuberculosis H37Rv growth inhibition; higher % means a stronger effect; inhibition, % at 10 µM; hits with a dose series show IC50 in µM; 220,000 tested, 0.95% active;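 active = confirmed in a dose series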;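 also: bacteria incubated seven days before Alamar blue readout; 0% = bacteria only wells and 100% = bacteria with antibiotic wells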
YopH inh: YopH tyrosine phosphatase inhibitors, primary screen, biochemical, fluorescence Ex485/Em525; inhibition, %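 (about 10 µM by stock and volumes)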; 140,000 tested, 0.16% active; AID 898, 2007;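 active = inhibition of 50% or more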;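 also: controls were vehicle for no effect and minimum signal wells for full effect; inactives centre near -20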
Mtb betalactam: beta-lactam sensitization of Mtb H37Rv, H37Rv. M. tuberculosis H37Rv growth with meropenem, percent inhibition; hits of this screen are not shown here. inhibition, % at 25 µM. 330,000 tested, 0.27% active. AID 434955, 2010;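 active = about 74% or more and at least 40 points above the plate without the antibiotic, then above 30% in a dose series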;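 also: growth measured after seven days incubation then overnight dye step; 0% = bacteria only wells and 100% = bacteria with antibiotic; twin plates without the antibiotic show which effects depend on it; some results filed as inactive read as strong as hits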
Arbovirus inh repeat: further read-out of Arbovirus inh, marked with its call; inhibition, %; measured here: 10K subset replicate screen; many hits read low in the repeat;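 first of two repeat runs on a subset; 0% = infected and 100% = uninfected wells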
Active calls of the source: *; x = no result given. A portion of the library; rates above refer to the full screens.

SMILES	RecA intein inh	Arbovirus inh	Mtb H37Rv	YopH inh	Mtb betalactam	others
O=C(NCCc1ccccc1F)C1CCCN1S(=O)(=O)c1ccc2ccccc2c1 (centres undefined)	4.0	-3	-5%	-11	-2
COc1cc(C(=O)Nc2ccc(NC(=O)c3ccccc3)nc2)cc(OC)c1OC	1.3	x	x	x	0
O=C(O)/C=C/C(=O)NC1CCCCC1	-4.5	2	3%	-33	2
CCS(=O)(=O)N1CCN(c2ccc(C(=O)NC3C4CC5CC(C4)CC3C5)cc2[N+](=O)[O-])CC1 (centres undefined)	0.4	-8	-3%	-15	5
O=C(NCCCNCc1ccccc1)/C(=N\O)c1ccccc1	x	9	-7%	-34	-12
Cc1cc(N2CCOCC2)n2ncc(-c3ccc(Cl)cc3)c2n1	-3.6	x	2%	x	3
COC(=O)c1ccsc1NC(=O)c1ccccc1	1.9	14	-10%	x	1
O=C(CCCn1c(=O)[nH]c2cc(Cl)ccc2c1=O)NCCCN1CCN(c2ccc(F)cc2)CC1	-3.9	-1	-5%	x	-9
Cc1cc(C)cc(SCc2noc(C(=O)NCCCN3CCOCC3)c2C(=O)NCCCN2CCOCC2)c1	1.2	x	-5%	x	-11
Brc1ccc(/C=N/Nc2ncnc3c2cnn3Cc2ccccc2)cc1	7.1	-16	x	-30	16
CN(C)CCSc1nnc(-c2ccccc2)o1	3.8	3	-13%	-22	-5
Cc1onc(-c2c(Cl)cccc2Cl)c1C(=O)ONC(=O)c1cc(C(F)(F)F)cc(C(F)(F)F)c1	x	x	15%	x	0
O=[N+]([O-])c1ccc2nc(-[n+]3c(-c4ccccc4)cc(-c4ccccc4)cc3-c3ccccc3)[nH]c2c1	11	0	14%	-9	52
COc1ccc(OC)c(-n2c(SCC(N)=O)nnc2-c2c[nH]c3ccccc23)c1	-1.1	2	-4%	x	-2
CSc1nc(O)c(/C=C2\C=Nc3ccccc32)[nH]1	6.1	-1	1%	-35	87
O=C(O)CC(CC(=O)Nc1ccccc1C(=O)O)c1ccccc1 (centres undefined)	-0.9	x	x	x	-1
COCc1cc(CN2CCN(CCc3ccccc3)C(CCO)C2)ccc1OC (centres undefined)	0.1	x	x	x	-3
Cc1ccc(NC(=O)NCc2ccccn2)cc1	-0.1	0	2%	x	1
C[C@H](NC(=O)c1ccco1)C(=O)Nc1ccc(C#N)cc1	-0.5	x	x	x	6
CCCCCCCCc1nc(=S)[nH][nH]1	-1.0	-24	8%	10	80
CCOCCCNC(=O)C(c1ccc(OC)cc1)N(Cc1cccs1)C(=O)c1ccccn1 (centres undefined)	-1.2	-6	x	x	-6
O=S(=O)(c1ccc2c(c1)OCCO2)N1CCN(Cc2ccc3c(c2)OCO3)CC1	4.2	-4	-6%	27	-17
CCNc1ccc(Br)cc(C(=O)/C=C/c2c(Cl)cccc2Cl)c1=O	7.4	-34	-2%	-24	-6
COC(=O)CNc1nc(-c2ccccc2F)nc2ccccc12	-0.1	-8	-2%	-33	-21
O=C(O)C1CCCCC1C(=O)NCCCN1CCOCC1 (centres undefined)	-2.5	-1	-8%	-59	-2
CSc1ccccc1NC(=O)c1cnccn1	0.6	-1	5%	3	-3
Cc1ccc(C(=O)NCCSc2c(C)[nH]c3ccccc23)cc1[N+](=O)[O-]	5.6	-1	15%	-2	8
O=C(CSc1nnc(-c2ccncc2)n1Cc1ccco1)Nc1nccs1	-0.8	-11	-6%	-26	-7
Cc1ccccc1OCC(=O)N/N=C/c1sc(=O)n(Cc2cccc(C(=O)O)c2)c1Cl	7.8	x	2%	x	-2
CN(C)c1ccc(-c2c(-c3ccc4c(c3)OCO4)noc2-c2ccsc2)cn1	22	x	x	x	21

Fetched by structure from above (three):
SMILES	RecA intein inh	Arbovirus inh	Mtb H37Rv	YopH inh	Mtb betalactam	others
CN(C)c1ccc(-c2c(-c3ccc4c(c3)OCO4)noc2-c2ccsc2)cn1	22	x	x	x	21
O=S(=O)(c1ccc2c(c1)OCCO2)N1CCN(Cc2ccc3c(c2)OCO3)CC1	4.2	-4	-6%	27	-17
Cc1ccc(C(=O)NCCSc2c(C)[nH]c3ccccc23)cc1[N+](=O)[O-]	5.6	-1	15%	-2	8

Further compounds follow.
SMILES	RecA intein inh	Arbovirus inh	Mtb H37Rv	YopH inh	Mtb betalactam	others
Cc1cc(NC(=O)CSCC(=O)Nc2cccc(S(=O)(=O)N3CCCCCC3)c2)no1	1.6	x	x	x	-5
COC(=O)c1sc2nc(SCC(=O)N(C)c3ccccc3)n(N)c(=O)c2c1C	-1.0	-13	-7%	x	-2
Nn1c(Nc2ccccc2)nc2sc3c(c2c1=O)CCC3	-0.4	-10	3%	-5	x
CCn1ncc(Br)c1C(=O)Nc1cc(C(=O)OC)ccc1C(=O)OC	-1.7	-1	-2%	-26	2
Cc1ccc(S(=O)(=O)O/N=C2/CCCc3occc32)cc1	1.0	-1	-15%	-12	13
COc1ccccc1N(C(=O)CNC(=O)c1ccco1)C(C(=O)NC1CCCC1)c1ccco1 (centres undefined)	-0.9	x	x	x	1
CN(C)S(=O)(=O)c1cccc(C(=O)Nc2ccc(S(=O)(=O)N3CCCC3)cc2)c1	-0.2	6	4%	x	0
O=S(=O)(CCSc1ccc(C(F)(F)F)cn1)c1ccccc1	0.7	x	9%	x	1
O=C(O)/C=C/c1cnc[nH]1	0.6	-2	-3%	-40	1
O=C(CSc1ccccn1)Nc1ccc2c(c1)OCCO2	1.5	x	-16%	x	-10
O=C(CSc1ccc(Cl)cc1)NC(=O)NCc1ccco1	2.4	-8	1%	x	2
COc1cccc(NC(=S)NC(=O)Cc2ccccc2)c1	4.1	x	x	x	-10
COc1ccc(-c2nc(C#N)c(N3CCN(C(=O)c4ccco4)CC3)o2)cc1OC	-0.2	x	x	x	-6
Cc1ccc(C(=O)c2sc3nsc(C)c3c2N)cc1	-5.1	-6	4%	-23	61
Cc1cccnc1Nc1nc(-c2ccc(O)cc2O)cs1	3.0	-11	13%	-32	12
Cc1cc(=O)oc2cc(OCC(=O)NC3CCCCC3)ccc12	1.0	x	x	x	5
CN1CCN(c2ccc(S(=O)(=O)N3CCCCC3)cc2NC(=O)Cc2ccc(Cl)cc2)CC1	1.6	-7	14%	-3	4
Cc1ccsc1/C=N/NC(=O)c1nnn(-c2nonc2N)c1-c1ccc2c(c1)OCO2	0.6	x	x	x	8
CN(C(=O)COc1ccc(Cl)cc1)C1(C)CCS(=O)(=O)C1 (centres undefined)	-0.7	x	x	x	-4
Cc1nn(CC(=O)NCc2cccs2)c(=O)c2nn(-c3ccccc3)c(C)c12	3.4	x	x	x	-3
CC(=O)N1N=C(c2ccccc2)CC1c1cccc([N+](=O)[O-])c1 (centres undefined)	0.0	x	x	x	0
O=C(NCCN1CCOCC1)c1ccc(N2CCCC2)c([N+](=O)[O-])c1	-1.9	4	-11%	x	-13
O=C(Oc1ccc2cccc(OC(=O)N3CCOCC3)c2c1)N1CCOCC1	-0.1	1	-8%	-11	7
COc1ccc(-c2c(C)nn3c(C)cc(C)nc23)cc1	0.5	x	x	x	3
COc1ccc(C(=O)N/C(=C/c2cccnc2)C(=O)N2CCOCC2)cc1OC	-1.3	x	2%	x	4
Cc1cc2c(OCC(O)CN3CCCCC3)cccc2[nH]1 (centres undefined)	3.0	-10	5%	x	0
CCOC(=O)c1sc(NC(=O)c2ccco2)nc1C	9.8	-1	7%	x	-1	Arbovirus inh repeat=-4
C=CCn1nnnc1SCC(=O)Nc1cccc(C(F)(F)F)c1	-0.4	x	x	x	-14
CCOC(=O)Cc1csc(NC(=O)CSc2nnc(-c3ccncc3)o2)n1	2.3	-19	-6%	x	2
COc1ccc(COCC(O)CN(Cc2ccco2)Cc2ccccc2O)cc1 (centres undefined)	2.8	20	13%	-8	-5

Ordered by heavy-atom count (highest first): some entries from above.
SMILES	RecA intein inh	Arbovirus inh	Mtb H37Rv	YopH inh	Mtb betalactam	others
CN1CCN(c2ccc(S(=O)(=O)N3CCCCC3)cc2NC(=O)Cc2ccc(Cl)cc2)CC1	1.6	-7	14%	-3	4
Cc1cc(=O)oc2cc(OCC(=O)NC3CCCCC3)ccc12	1.0	x	x	x	5
Cc1cc2c(OCC(O)CN3CCCCC3)cccc2[nH]1 (centres undefined)	3.0	-10	5%	x	0

The listing picks up, starting three compounds before the break.
SMILES	RecA intein inh	Arbovirus inh	Mtb H37Rv	YopH inh	Mtb betalactam	others
C=CCn1nnnc1SCC(=O)Nc1cccc(C(F)(F)F)c1	-0.4	x	x	x	-14
CCOC(=O)Cc1csc(NC(=O)CSc2nnc(-c3ccncc3)o2)n1	2.3	-19	-6%	x	2
COc1ccc(COCC(O)CN(Cc2ccco2)Cc2ccccc2O)cc1 (centres undefined)	2.8	20	13%	-8	-5
C/C(=C\c1ccccc1)C1NC(=O)c2c(sc3c2CCCC3)N1 (centres undefined)	-3.9	13	7%	-2	0
CCOC(=O)c1c(NC(=O)CN2CCOCC2)sc2c1CCCC2	16	-11	-1%	-32	12
CCN(CC)CCCNC(=O)c1ccccc1C	2.1	7	-10%	-50	-8
O=C(COC(=O)c1cc(=O)[nH]c2ccccc12)Nc1ccc(Cl)cn1	-0.8	x	x	x	-1
O=C(NCC(=O)N(Cc1ccc(F)cc1)C(C(=O)NCC1CCCO1)c1ccccc1)c1ccco1 (centres undefined)	0.0	x	x	x	-5
O=C(Cn1nc(-c2cccc(Cl)c2)ccc1=O)NCC1COCCO1 (centres undefined)	5.0	x	x	x	-18
Cc1cc(N2CCOCC2)ccc1/C=C1\NC(=O)N(Cc2ccccc2)C1=O	-6.0	-7	3%	x	7
Cc1c(O)c(=O)ccn1Cc1ccccc1	-2.6	-36	3%	-27	-1
CCCC(=O)c1ccc(N2CCCCC2)c(F)c1	1.1	-4	6%	x	-3
COc1ccc(-c2ccccc2)cc1NCc1ccccc1C	4.2	-6	44%	-35	0
O=C(Cn1c(=O)oc2cc(S(=O)(=O)N3CCCC3)ccc21)Nc1ccccc1Br	1.5	x	-11%	x	-6
Cc1ccc(/C=N/n2c(-c3cccc(Cl)c3)n[nH]c2=S)o1	-1.3	x	10%	x	-10
Cc1ccc(NC(=O)CSc2nc3[nH]ncc3c(=O)[nH]2)cc1	-1.8	-3	-5%	x	4
CCCN(CC(=O)Nc1ccccc1C)C(=O)C1CCN(S(=O)(=O)c2ccccc2C(F)(F)F)CC1	-3.2	x	x	x	0
CC1(C)NC(=O)N(CCOCCOc2ccccc2)C1=O	1.2	6	x	-2	-1
Cc1ccc(C)c(SCC(=O)NNC(=O)c2csc(N3CCOCC3)n2)c1	2.5	x	x	x	-2
Cc1cccc(-n2nnnc2SCC(=O)c2cc(C)n(Cc3ccco3)c2C)c1	-0.4	-5	-2%	-26	-6
COc1ccc(C)cc1NC(=O)CN(Cc1nnc(-c2ccc(Cl)cc2)o1)C1CCCC1	26	15	-10%	-19	36
CN(/N=C/c1ccccc1)C(=S)c1ccccc1	8.7	x	x	x	2
O=C(NC1CCCC1)C(c1cc2c(cc1[N+](=O)[O-])OCO2)N1CCCC1 (centres undefined)	1.0	4	1%	x	-2
CCc1nnc(NC(=O)OCc2ccccc2)s1	0.5	4	2%	-52	3
COc1ccc(NC(=O)Cc2nnc(SCC(=O)c3ccc(F)cc3)n2C)cc1	-1.9	x	x	x	-4
Cc1ccc(C)c(C2=CSC3=NCCN23)c1	1.8	4	0%	-28	0
CCOC(=O)C1NN=C(C(=O)c2ccccc2)C1c1ccc(OC)cc1 (centres undefined)	-0.2	4	5%	x	-4
CCC(CC)C(=O)Nc1cccc(SC)c1	x	-6	-6%	x	-4
COc1ccc(CC(=O)Nc2ccc(-c3noc(-c4ccccc4OC)n3)cc2)cc1	0.6	-10	-4%	5	-14
CC1CCC2[C@@H](C)C(=O)OC3O[C@]4(C)CCC1C32OO4 (some centres undefined)	-1.0	x	x	x	2
COC(=O)c1ccc(NC(=S)NC(=O)c2c(Cl)cnn2C)cc1	-1.1	0	-8%	-8	2
CCOC(=O)c1c(-c2ccccc2)csc1NC(=O)c1nn(CC)cc1Br	4.7	25	4%	-23	16
CCO/N=C(\C)c1c(O)c(CC)c(-c2ccccc2)n(-c2ccccc2)c1=O	5.8	3	8%	-19	13
O=C(O)c1ccc2cccc(O)c2n1	-11	x	-7%	x	20
Cn1c(NC(=O)c2ccco2)c(-c2ccccc2)c(=O)c2ccccc21	-3.1	4	2%	-23	-2
COCCN1C(=O)NC(=O)/C(=C\c2ccc(Br)cc2)C1=O	-0.4	23	-6%	x	4
CCN(CC)S(=O)(=O)c1ccc(N2CCCC2)c(NC(=O)C2CSC3(C)CCC(=O)N23)c1 (centres undefined)	0.7	x	x	x	-1
Cc1cc(C)cc(N2C(=O)CC(N3CCOCC3)C2=O)c1 (centres undefined)	4.5	7	-8%	-5	4	Arbovirus inh repeat=4
CC(C)(C)C(=O)Nc1cccc(C(=O)c2cccc(NC(=O)C(C)(C)C)c2)c1	-1.6	19	-1%	-14	-8
